KCNQ2 block: KCNQ2 potassium channel inhibitors, primary screen, cell-based, CHO-K1, FluxOR thallium flux, B-score (AID 2156); B-score at 10 µM; 20 min; active compounds read low; only compounds with negative scores are shown here; some inactives read as strong as hits; 1.1% of 310,000 active; O88943;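 active = fluorescence ratio B-score at most minus 3 library SDs, with starting brightness B-score within 2 library SDs, cut at about -5.5 in these data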
Target sequence (O88943 whole entry, looked up): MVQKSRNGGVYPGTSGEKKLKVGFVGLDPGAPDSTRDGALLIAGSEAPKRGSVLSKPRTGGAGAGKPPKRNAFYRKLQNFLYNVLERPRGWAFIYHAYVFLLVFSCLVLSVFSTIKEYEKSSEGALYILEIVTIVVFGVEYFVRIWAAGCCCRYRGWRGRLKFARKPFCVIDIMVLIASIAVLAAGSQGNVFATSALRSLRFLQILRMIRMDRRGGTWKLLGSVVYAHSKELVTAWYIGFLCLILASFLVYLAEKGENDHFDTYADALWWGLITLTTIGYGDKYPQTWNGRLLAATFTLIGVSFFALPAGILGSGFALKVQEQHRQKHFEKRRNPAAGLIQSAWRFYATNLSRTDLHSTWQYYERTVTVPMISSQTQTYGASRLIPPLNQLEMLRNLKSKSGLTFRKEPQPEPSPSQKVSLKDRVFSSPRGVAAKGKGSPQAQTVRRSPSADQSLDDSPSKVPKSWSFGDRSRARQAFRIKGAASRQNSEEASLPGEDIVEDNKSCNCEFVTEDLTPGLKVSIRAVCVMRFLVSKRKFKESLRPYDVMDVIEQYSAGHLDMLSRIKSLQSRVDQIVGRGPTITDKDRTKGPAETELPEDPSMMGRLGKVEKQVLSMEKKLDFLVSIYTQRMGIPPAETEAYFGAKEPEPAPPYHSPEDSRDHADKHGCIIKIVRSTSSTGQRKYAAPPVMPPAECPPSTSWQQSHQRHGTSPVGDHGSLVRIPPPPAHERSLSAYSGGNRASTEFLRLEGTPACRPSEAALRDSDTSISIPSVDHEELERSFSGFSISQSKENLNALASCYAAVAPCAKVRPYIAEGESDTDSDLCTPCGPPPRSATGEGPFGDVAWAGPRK
KCNQ2 block baseline: also measured in KCNQ2 block; calls as there; B-score; measured here: initial fluorescence intensity artifact check;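 brightness before thallium and not channel activity; 0 = typical well and far values either way flag optical interference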
Active calls of the source: *; i = inactive. Not all compounds are listed (hit frequency here may not be typical).

SMILES	KCNQ2 block	KCNQ2 block baseline
Cc1ccc(S(=O)(=O)N2CCCC(C(=O)N3CCC4(CC3)OCCO4)C2)cc1 (stereo unspecified)	i	1.02
O=C1CCCN1c1ccc(S(=O)(=O)O)cc1 (tested in a mixture with another compound)	i	1.24
Cc1ccc(Cn2nc(C(=O)Nc3ccc(Br)cc3)cc2C)cc1	i	-0.49
Fc1ccc2c(c1)nnn2C1CCN(Cc2nnnn2CCc2ccccc2)CC1	i	-0.59
COC(=O)C1=C(c2ccc(S(C)(=O)=O)cc2)C[C@@H]2CC[C@H]1N2C(=O)NCCCOC(C)C	i	-0.37
CCN(CC)c1ccc(/C=C/[N+](=O)[O-])cc1	-8.76*	3.37*
CCN(CC)C(=O)c1ccc(NC(=O)c2ccc(-c3nn(C)c(=O)c4ccccc34)cc2)cc1	i	0.85
CCOC(=O)c1c(C)n(C(C)C)c2ccc(OC)cc12	i	0.03
CCOc1cc(CNCCc2c[nH]c3ccccc23)cc(Cl)c1OCC	i	-2.27
CC(C)CCOP(N)(=O)Oc1ccccc1Cl (stereo unspecified)	i	-0.5
Cc1cc(OCCN2CC2)c2ccccc2n1	i	1.78
COc1cccc(CN2CCN(Cc3cccc(F)c3)CC2)c1	i	0.7
CN(C)c1ccc(/C=C2\CC3C4CC=C5CC(O)CCC5(C)C4CCC3(C)C2=O)cc1 (stereo unspecified)	i	0.12
Cc1cc(OCC(=O)NCc2cccnc2)c2c3c(c(=O)oc2c1)CCCC3	i	0.46
CCC(CO)Nc1ccc([N+](=O)[O-])c2cccnc12 (stereo unspecified)	i	-1.51
c1ccc(CC(NCc2ccco2)c2ccccc2)cc1 (stereo unspecified)	i	-0.78
CC(=O)CC(=O)C1C(=O)N(C)C(=O)N(C)C1=O	i	-0.85
O=C(CCCc1ccccc1)NCCc1cnc[nH]1	i	1.35
CNC(=O)c1cccn(Cc2cc(C(F)(F)F)cc(C(F)(F)F)c2)c1=O	i	1.35
CCCCn1c(NC(=O)c2ccco2)c(C(=O)OCC)c2nc3ccccc3nc21	i	2.35
CCN(CC)c1ccc(N=Cc2c(O)n(Cc3ccccc3)c(=O)[nH]c2=O)cc1	i	5.8
COc1ccc(C(C)=O)cc1CC(C(=O)c1ccc(C)c(C)c1)N(C)C (stereo unspecified)	i	-0.12
CCOc1cc(CNCCc2ccccc2F)ccc1OC	i	-1.03
COc1ccc(NP(=O)(Oc2cccc(C)c2)Oc2cccc(C)c2)cc1OC	i	-1.85
CCOc1cc(CN2CCN(C(=O)Cc3ccccc3)CC2)ccc1OC	i	-0.11
CC12CC[C@H]3[C@@H](CCC4(O)C[C@H](O)CCC34/C=N/NC(=O)c3ccc(O)cc3)C1(O)CCC2C1=CC(=O)OC1 (stereo partly specified)	i	-3.42
Cc1cccc(-n2c(O)c(/C=C/C=Nc3ccccc3)c(=O)[nH]c2=O)c1	i	6.49
Cn1cc(Br)c(C(=O)Nc2ccc3c(C(F)(F)F)cc(=O)oc3c2)n1	i	-2.17
CC(C)=CCSc1nnc([C@@H](N)Cc2c[nH]c3ccccc23)o1	i	-0.53
CCOP(=S)(OCC)N1CCOCCOCCN(P(=S)(OCC)OCC)CCOCCOCC1	i	1.56
COC(=O)C1=C(c2ccccc2)C[C@@H]2CC[C@H]1N2C(=O)N1CCC(O)CC1	i	0.02
O=C1NC(=O)N(Cc2ccco2)C(=O)/C1=C/c1cccn1CCOc1ccccc1Cl	i	-0.31
Cc1nc2ccccc2c(=O)n1-c1ccc(F)cc1F	i	-0.33
C[C@H]1CCC[C@H](O)CCCCCc2cc(O)cc(O)c2C(=O)O1	i	-2.38
CCN1CCC(O)(c2ccccc2)C(C(=O)c2ccccc2)C1 (stereo unspecified)	i	0.95
O=C(C[N+]12CCN(CC1)CC2)NCCc1ccc(Cl)cc1Cl	i	0.03
COc1ccc(CCNC(C)CCc2ccc(OC)cc2)cc1 (stereo unspecified)	i	-0.73
O/N=C1/C(=C\c2ccccc2)N2CCC1CC2	i	2.07
O=P(CN1CCN(c2ccccc2)CC1)(N1CCCCC1)N1CCCCC1	i	0.09
Cc1cc(OC(=O)CCCNC(=O)OC(C)(C)C)c2c3c(c(=O)oc2c1)CCC3	i	-0.01
CCC(CC)C1C(C#N)=C(N)Oc2c1c(=O)oc1ccccc21 (stereo unspecified)	i	0.09
CCCCn1c(=O)c(C(=O)NCc2ccccc2OC)c(O)c2ccccc21	-6.22*	0.21*
CCCNc1nc(OC)nc(N2CC3CC(C2)c2cccc(=O)n2C3)n1 (stereo unspecified)	i	-1.07
CCC(CO)(C(=O)OC1C[N+]2(C)CCC1CC2)c1ccccc1 (stereo unspecified)	i	-0.3
Fc1ccc(NC2=NCCS2)cc1Cl	i	-0.66
CCC(=O)Nc1ccccc1	i	0.66
Clc1cccc(Cl)c1CN1CCN(c2ccccc2)CC1	i	4.01
COc1ccc(S(=O)(=O)Cc2ccc(C(=O)N3CCC4(CC3)OCCO4)o2)cc1	i	-0.04
Cc1cc(O)c2c(C)c(CC(=O)N3C[C@H]4C[C@@H](C3)c3cccc(=O)n3C4)c(=O)oc2c1	i	-0.76
O=C1NC(=O)N(c2ccccc2)C(=O)/C1=C\c1ccccc1[N+](=O)[O-]	i	0.06
C[C@]12CCC3[C@@H](CC[C@H]4C[C@@H](O)CC[C@]34C)C1CCC2=O (stereo partly specified)	i	0.66
CCCCC(=O)N/N=C/c1c(O)n(CCC2=CCCCC2)c(=O)[nH]c1=O	i	-1.39
CCOC(=O)[C@@]1(C#N)[C@@H]2C=CC(C(N)=O)=CN2[C@@H](C(N)=O)[C@@H]1c1cccc(Cl)c1	i	-0.01
O=c1c2ccccc2nc(Cc2cccc([N+](=O)[O-])c2)n1-c1ccc(O)cc1	i	-0.07
CNCCc1c(C)n[nH]c1C	i	-0.59
Cc1ccc(S(=O)(=O)N2CCCCC2)cc1NC(=O)CN1CC=C(c2ccccc2)CC1	i	-0.11
CSCCC(N=Cc1c(O)n(-c2ccc(F)cc2)c(=O)[nH]c1=O)C(=O)OC(C)(C)C (stereo unspecified)	i	0.29
COc1ccc(N2C(=O)NC(=O)/C(=C\c3cn(C)c4ccccc34)C2=O)cc1	i	39.4
CN1CCN(S(=O)(=O)c2cnc(Cl)c(Br)c2)CC1	i	-2.23
O=[N+]([O-])c1ccc(N2CCNCC2)c(Cl)c1	i	0.94
Next section:
SMILES	KCNQ2 block	KCNQ2 block baseline
CC(C)(C)n1cc(C(=O)c2ccccc2)cc1-c1ccccc1	i	1.78
CCCN1CCCC(C(=O)c2cc(C)c(OC)c(C)c2)C1 (stereo unspecified)	i	-0.02
Cc1ccc(OP(=O)(NCc2ccccc2)Oc2ccc(C)cc2)cc1	i	1.5
CC1CCN(CC(=O)c2ccc3c(c2)OCCO3)CC1	i	0.59
Cn1c(O)c(C=NCCN2CCN(C(=O)c3ccccc3)CC2)c(=O)n(C)c1=O	i	0.16
CCCCNC(=S)N1CCn2cccc2C1c1cccnc1 (stereo unspecified)	i	1.1
COc1ccc(CNCCc2cccc(F)c2)c2ccccc12	i	-0.02
CSCCC(NC(=O)CCC(=O)OC1CC[C@H]2[C@@H]3CC[C@H]4CC(=O)CC[C@]4(C)[C@H]3CC[C@]12C)C(=O)O (stereo partly specified)	i	-1.02
O=c1c2ccccc2nc(/C=C/c2ccco2)n1-c1ccccc1O	i	-0.71
CCOc1ccc(-n2c(O)c(N=Nc3c(C)n(C)n(-c4ccccc4)c3=O)c(=O)[nH]c2=O)cc1	i	-2.26
CCOC(=O)c1nc2ccccc2c(=O)n1-c1ccc(C)cc1C	i	0.97
CCCCCn1c(=O)c(C(=O)Nc2c(C)n(C)n(-c3ccccc3)c2=O)c(O)c2ccccc21	i	-1.97
OCC[N+]12CCC(CC1)C(C(O)(c1ccccc1)c1ccccc1)C2 (stereo unspecified)	i	-0.29
O=C1/C(=C\c2ccc(Cl)cc2Cl)N2CCC1CC2	i	1.79
CN(C)c1ccc(/C=C2\C(=O)NC(=O)N(CCc3ccc(F)cc3)C2=O)cc1	i	0.05
CC(=O)N1CN2CN(C(C)=O)CC(C(=O)c3ccc([N+](=O)[O-])cc3)(C2)C1	i	-0.31
O=P1(Nc2cccnc2)COc2ccccc2OC1	i	-0.03
Cc1ccc(C(=O)Nc2ccc(Cl)cc2C(=O)c2ccccc2)cc1	i	-0.45
CC(CN(C)C1CCN(C)CC1)c1ccccc1 (stereo unspecified)	i	-0.8
COc1ccc(Cn2c(O)c(/C=N/NC(=O)c3ccccc3)c(=O)[nH]c2=O)cc1	i	0.1
CN1C(=O)C(Cc2cccc3ccccc23)C(=O)N(C)C1=O	i	-1.41
CN1CCN(c2ccc(C=O)cc2)CC1	i	1.9
N[C@@H](Cn1oc(=O)[nH]c1=O)C(=O)O	i	-0.6
O=P(Oc1ccccc1)(Oc1ccccc1)c1ccccc1	i	-1.4
CCOC(=O)C1(CCOc2ccccc2)CCN(C2Cc3ccccc3C2)CC1	i	0.05
CCOC(=O)C1(CCc2ccccc2)CCN(CC(O)CO)CC1 (stereo unspecified)	i	3.1
c1cncc(C2Nc3cccc4cccc(c34)N2)c1	i	-3.38
O=C1c2cccc3cccc(c23)C(=O)N1/N=C/c1c(O)n(-c2ccccc2)c(=O)[nH]c1=O	i	-1.49
O=c1[nH]c(=O)n(C2CCCCC2)c(O)c1/C=N/N1CCCCC1c1cccnc1 (stereo unspecified)	i	-0.02
CCN(CC)S(=O)(=O)c1ccc(C)c(NCC(=O)Nc2ccc(C#N)c(Cl)c2)c1	i	0.16
O=C1NC(=O)N(Cc2ccco2)C(=O)/C1=C\c1cccn1CCOc1ccccc1	i	-0.41
Cc1cccc(CN2CCCC(C(=O)c3ccc4c(c3)OCO4)C2)n1 (stereo unspecified)	i	3.13
CCOP(=O)(OCC)C(NC(C)=O)C(Cl)(Cl)Cl (stereo unspecified)	i	-2.71
Cn1c(=O)cc(OCC(=O)N2CCN(Cc3ccc4c(c3)OCO4)CC2)c2ccccc21	i	-1.7
C(#CCN1CCOCC1)COC/C=C/c1ccccc1	i	1.76
COc1ccc(CC2C(=O)N(C)C(=O)N(C)C2=O)c(OC)c1	i	0.73
COc1ccc(CN2CCCC(C(=O)c3ccc(Cl)cc3)C2)c(OC)c1 (stereo unspecified)	i	-0.34
O=c1c2ccccc2nc(N2CCCC2)n1-c1ccccc1	i	1.18
COC(=O)C(O)(c1ccc(N(C)C(=O)COc2ccccc2)cc1)C(F)(F)F (stereo unspecified)	i	0.33
CCOC(=O)c1cncn1[C@H](C)c1ccccc1	i	1.02

Ordered by length of the SMILES (low to high): some entries from above.
SMILES	KCNQ2 block	KCNQ2 block baseline
CN1CCN(c2ccc(C=O)cc2)CC1	i	1.9
C(#CCN1CCOCC1)COC/C=C/c1ccccc1	i	1.76
c1cncc(C2Nc3cccc4cccc(c34)N2)c1	i	-3.38
N[C@@H](Cn1oc(=O)[nH]c1=O)C(=O)O	i	-0.6
O=P(Oc1ccccc1)(Oc1ccccc1)c1ccccc1	i	-1.4
CCOP(=O)(OCC)C(NC(C)=O)C(Cl)(Cl)Cl (stereo unspecified)	i	-2.71
CCOC(=O)C1(CCc2ccccc2)CCN(CC(O)CO)CC1 (stereo unspecified)	i	3.1
CN1C(=O)C(Cc2cccc3ccccc23)C(=O)N(C)C1=O	i	-1.41
COc1ccc(CC2C(=O)N(C)C(=O)N(C)C2=O)c(OC)c1	i	0.73
Cc1cccc(CN2CCCC(C(=O)c3ccc4c(c3)OCO4)C2)n1 (stereo unspecified)	i	3.13
COc1ccc(CN2CCCC(C(=O)c3ccc(Cl)cc3)C2)c(OC)c1 (stereo unspecified)	i	-0.34
O=C1NC(=O)N(Cc2ccco2)C(=O)/C1=C\c1cccn1CCOc1ccccc1	i	-0.41
O=c1[nH]c(=O)n(C2CCCCC2)c(O)c1/C=N/N1CCCCC1c1cccnc1 (stereo unspecified)	i	-0.02
Cn1c(=O)cc(OCC(=O)N2CCN(Cc3ccc4c(c3)OCO4)CC2)c2ccccc21	i	-1.7
O=C1c2cccc3cccc(c23)C(=O)N1/N=C/c1c(O)n(-c2ccccc2)c(=O)[nH]c1=O	i	-1.49

Remaining list, next part.
SMILES	KCNQ2 block	KCNQ2 block baseline
CNC(=O)c1cccn(Cc2ccc(C(F)(F)F)cc2)c1=O	i	0.08
CCC(C#N)(CC)P(=S)(c1ccccc1)c1ccccc1	-8.64*	-2*
CC(C)OCCCNC(=O)c1c(N)n(Cc2cccs2)c2nc3ccccc3nc12	i	-1.65
O=C(c1cc(-c2ccccc2)nc2ccccc12)N1CCC2(CC1)OCCO2	i	-2.14
CCOP(=O)(CN(CC)CCNP(=O)(OCC)OCC)OCC	i	0.13
O=P(Oc1ccccc1)(Oc1ccccc1)C(O)c1ccc(Cl)cc1 (stereo unspecified)	i	-0.6
COC(=O)[C@H]1C[C@@H]1[C@H](NP(=O)(c1ccccc1)c1ccccc1)c1ccccc1	i	1.53
C1CCCN(C2CCNCC2)CC1	i	-1.21
COc1cccc(C(=O)N2CCC3(CC2)OCCO3)c1	i	-0.78
COc1cccc(C(=O)C2CCCN(Cc3cccc(C)n3)C2)c1 (stereo unspecified)	i	-1.01
NC(=O)C1CCN(/C=C2\C(=O)NC(=O)N(Cc3ccco3)C2=O)CC1	i	0.1
O=C(c1ccc(N2CC3CC(C2)c2cccc(=O)n2C3)c([N+](=O)[O-])c1)N1CCCCC1 (stereo unspecified)	i	-0.06
O=c1ccc2cc(O[C@@H]3O[C@@H](CO)[C@H](O)[C@@H](O)[C@@H]3O)c(O)cc2o1	i	3.28
CC12CCC3C(CC=C4CC5(CCC43C)OCCO5)C1CCC2=O (stereo unspecified)	i	0.2
Cc1cnn(C2CCN(C)CC2)c1N	i	0.28
CCOC(=O)c1c(C)n(Cc2ccc3c(c2)OCO3)c2ccc(O)cc12	i	0.01
CSc1nc2ccccc2c(=O)n1-c1cccnc1	i	-0.37
CN1CCN(c2nccc3c2ncn3C)CC1	i	0.08
CC(=O)OC1N=C(c2ccccc2)c2cc(C)ccc2NC1=O (stereo unspecified)	i	0.53

3 compounds out of the list, sorted by length of the SMILES, smallest number first:
SMILES	KCNQ2 block	KCNQ2 block baseline
O/N=C1/C(=C\c2ccccc2)N2CCC1CC2	i	2.07
COC(=O)[C@H]1C[C@@H]1[C@H](NP(=O)(c1ccccc1)c1ccccc1)c1ccccc1	i	1.53
Cc1cc(O)c2c(C)c(CC(=O)N3C[C@H]4C[C@@H](C3)c3cccc(=O)n3C4)c(=O)oc2c1	i	-0.76
